# High-throughput results: PubChem BioAssay, several laboratories
# 26S disassembly = blocks ATP-dependent breakdown of the yeast 26S proteasome; anti-FLAG beads, GFP-proteasome disassembly, flow cytometry; inhibition of disassembly, % (no concentration beside the values); 24,000 compounds, 0.2% hits; AID 751;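 active means above 40%; inconclusive means likely self-fluorescent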;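 further: plate controls were ATP control with full disassembly for no effect and ATP-gamma-S intact proteasomes for full effect; higher percent means more bead fluorescence retained so stronger block of disassembly; stock transfer was 100 nL into about 10 µL; wells with too few beads may also be inconclusive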
# VCAM-1 up = enhancers of VCAM-1 display on endothelial cells, cell-based, plate reader, pooled HUVEC, TNFa stimulus (AID 455); HUVEC TNFa-induced VCAM-1 immunofluorescence, plate reader; numbers were filed only for top-ranked candidate wells; augmentation, % at 5 µM; 10,000 compounds, 0.2% hits;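 active means a compound raising TNF-alpha-driven VCAM-1 surface staining, with its hit status upheld on visual or statistical review; inactive means the rest, including hits rejected on review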;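 further: 0% = TNFa with vehicle and 100% = strongest image-checked hit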
# * marks the source's active call; other numbers are inactive results; i = inactive; ? = inconclusive; nt = no result given; & = joins results of further samples. This is a subset, so the mix of outcomes need not match the whole.
entry	compound	26S disassembly	VCAM-1 up
1	O=C(CCCCn1c(=O)[nH]c2ccsc2c1=O)NCC1CCCO1 (stereo unspecified)	-1.1	nt
2	CCN(C(=O)c1cn(C)c(=O)c2cc(OC)c(OC)cc12)c1ccccc1C	-0.2	i
3	CCCC(C(=O)NCc1ccco1)N(C(=O)CNS(=O)(=O)c1ccc(Cl)cc1)C1CCCC1 (stereo unspecified)	-1.3	i
4	CCOC(=O)c1[nH]nc2c1C(=O)N(Cc1ccccc1)C2=O	0.8	nt
5	Cc1oc(-c2cccs2)nc1CS(=O)CC(=O)NCCCN1CC(C)CC(C)C1 (stereo unspecified)	11	nt
6	Cc1cc(Nc2ccccc2N2CCOCC2)n2ncnc2n1	1.1	i
7	COc1ccccc1CNC(=O)CSc1nc2nc(C)cc(C)n2n1	1.7	nt
8	O=C(CN1CCN(S(=O)(=O)c2ccc(Br)cc2)CC1)Nc1ccc(F)cc1	-1.8	nt

# Values in list order from the entries so far.
# Compounds 1 to 8 in 26S disassembly, in turn: -1.1, -0.2, -1.3, 0.8, 11, 1.1, 1.7, -1.8

# Continuation.
entry	compound	26S disassembly	VCAM-1 up
9	Cc1cccc(Cn2cnc3c(nnn3Cc3ccccc3F)c2=O)c1	0.1	nt
10	CCC(SC1=Nc2ccccc2C2=NC(CC(C)C)C(=O)N12)C(=O)Nc1ccc2c(c1)OCO2 (stereo unspecified)	0.8	nt
11	O=C1c2ccccc2C(=O)N1CCN1CCOCC1	-1.4	nt
12	O=S(=O)(c1ccccc1)N1CCN(C2CCCCCCC2)CC1	-3.2	i
13	CCOC(=O)N1CCN(C(=O)COc2cc(=O)n(CC)c3ccccc23)CC1	0.4	nt
14	CC(=O)c1ccc(N2CCN(C(=O)CCCn3c(=S)[nH]c4cc5c(cc4c3=O)OCO5)CC2)cc1	2.8	nt
15	O=C(CN1CCN(c2ccccn2)CC1)Nc1cc(C(F)(F)F)ccc1Cl	0.5	nt
16	C#CCSc1nsc(SCC#C)c1C#N	14	nt
17	COc1ccc(N(CC(=O)N2CCCCC2)S(=O)(=O)c2c(C)nn(C)c2C)cc1	2.2	nt
18	COc1cc(Cn2c(C(=O)O)cc3sccc32)cc(OC)c1OC	-2.1	i
19	Cc1c(NC(=O)C(C)OC(=O)c2cc3c4ccccc4n(C)c3s2)c(=O)n(-c2ccccc2)n1C (stereo unspecified)	?	i
20	Cn1c(=O)oc2cc(S(=O)(=O)N3CCN(c4ccccn4)CC3)ccc21	-0.5	i
21	CC(=O)c1cc2c(cc1NC(=O)c1cc(C)nn1-c1ccccc1)OCO2	-0.3	nt
22	COC1(OC)N=C(N)C2(C#N)C(c3ccc(F)cc3)C12C#N (stereo unspecified)	-1.6	nt
23	COc1ccc(Cc2noc(-c3ccc(C)cc3)n2)cc1	-1.4	i
24	N#CC(C(=O)C1CCCCC1)c1nc2ccccc2[nH]1 (stereo unspecified)	0.6	i

# Entries of single compounds, looked up by structure. Order of screens: 26S disassembly | VCAM-1 up
# Results for `Cn1c(=O)oc2cc(S(=O)(=O)N3CCN(c4ccccn4)CC3)ccc21` : -0.5 | i
# Results for `COc1ccc(Cc2noc(-c3ccc(C)cc3)n2)cc1` : -1.4 | i
# Results for `COc1ccc(N(CC(=O)N2CCCCC2)S(=O)(=O)c2c(C)nn(C)c2C)cc1` : 2.2 | nt
# Results for `CC(=O)c1cc2c(cc1NC(=O)c1cc(C)nn1-c1ccccc1)OCO2` : -0.3 | nt
# Results for `COc1cc(Cn2c(C(=O)O)cc3sccc32)cc(OC)c1OC` : -2.1 | i

# Next records follow.
entry	compound	26S disassembly	VCAM-1 up
25	CC(C)C(=O)NC(C)C(c1cccs1)N1CCN(C)CC1 (stereo unspecified)	-1.6	nt
26	COc1ccc(OC)c(C2CC(=O)c3c([nH]c(C(=O)OCC4CCCO4)c3C)C2)c1 (stereo unspecified)	-0.2	nt
27	O=C(CCSc1nnc2scc(-c3ccccc3)n12)Nc1nc(-c2ccccc2)ns1	-1.5	nt
28	C=CCn1c(SC(C)C(=O)NC2(C#N)CCCCC2)nnc1-c1ccc(OC)cc1 (stereo unspecified)	-1.4	i
29	CC1(C)CC(=O)N(CC(=O)NCc2ccc(F)cc2)c2ccccc2S1(=O)=O	10	nt
30	COC(=O)Cc1cc(=O)[nH]c(Nc2nc3ccccc3o2)n1	2.2	i
31	COCCNC(=O)CN1CCN(Cc2cccc(Cl)c2)C1=O	0.7	i
32	COc1ccc2c(=O)c3c(=O)n(Cc4ccco4)c(-c4cc(OC)c(OC)c(OC)c4)nc3oc2c1	4.6	i

# Ordered by value in 26S disassembly (low to high): 3 from the list above.
item	SMILES	26S disassembly	VCAM-1 up
22	COC1(OC)N=C(N)C2(C#N)C(c3ccc(F)cc3)C12C#N (stereo unspecified)	-1.6	nt
23	COc1ccc(Cc2noc(-c3ccc(C)cc3)n2)cc1	-1.4	i
21	CC(=O)c1cc2c(cc1NC(=O)c1cc(C)nn1-c1ccccc1)OCO2	-0.3	nt

# Continuation:
entry	compound	26S disassembly	VCAM-1 up
33	O=C(O)c1cccc(S(=O)(=O)Nc2ccc3oc(=O)sc3c2)c1	-1.5	nt
34	CCc1c(C)sc(NC(=O)c2cc(C)no2)c1C#N	3.1	nt
35	O=C(c1ccc(Cn2c(=O)[nH]c3ccccc3c2=O)cc1)N1CCN(c2ccccc2)CC1	0.1	nt
36	O=C(Nc1ccc2c(c1)OCO2)C1(S(=O)(=O)c2ccc(Cl)cc2)CC1	-0.6	nt
37	C[N+](C)(C)C/C=C1/COCO1	1.6	nt
38	COc1ccccc1NC(=O)NC(N)=O	1.5	i
39	CCOC(=O)C1CCN(c2nnc(N3CCCC3=O)s2)CC1	0.7	nt
40	COc1ccc(C2OC(=O)CC2C(=O)N2CCN(c3cc(Cl)ccc3C)CC2)cc1OC (stereo unspecified)	1.5	nt
41	O=C(CSc1ccc2nnc(-c3ccc(F)cc3)n2n1)NCc1ccco1	-1.1	nt
42	O=C(Cn1ccc2ccccc2c1=O)NCCC(=O)Nc1cccnc1	-1.3	nt
43	CC(NS(=O)(=O)c1ccc(F)cc1)C(c1cccs1)N1CCN(C)CC1 (stereo unspecified)	0.2	i
44	COc1ccccc1Cn1c(=S)[nH]c2cc(C(=O)NCCN3CCOCC3)ccc2c1=O	-0.4	nt
45	CC1(C)Cc2c(c(-c3ccccc3)nc(N3CCCC3)c2C(N)=O)CO1	0.4	i
46	Cc1ccc(NC(=O)Nc2ccc3c(c2)N(C)C(=O)CS3)nc1	3.7	i
47	Cc1ccc(-n2ncc3c(=O)[nH]c(SCC(=O)N4CCN(c5ccccc5)CC4)nc32)cc1	0.5	i
48	CCOC(=O)c1ccc(Nc2cc(C)nc3nc(C)nn23)cc1	1.5	nt
49	CC(=O)Nc1ccc(S(=O)(=O)N2CCSC2c2ccccc2)cc1 (stereo unspecified)	0.5	i
50	CCC1Oc2ccc(C)cc2N(Cc2cccc(C)c2)C1=O (stereo unspecified)	-5.0	nt
51	Cc1nn(-c2ccccc2)c2c1C(c1c(C)[nH]c(C#N)c1C)C(C#N)=C(N)O2 (stereo unspecified)	1.0	i
52	COCCN1Cc2cccc(C(=O)Nc3cccnc3)c2C1=O	-2.1	i
53	Cc1ccc(-c2nnc3ccc(SCC(=O)N4CCCCC4)nn23)cc1	-0.5	nt
54	CC1CCCCC1NC(=O)Cn1nnc(-c2ccc(Cl)cc2)n1 (stereo unspecified)	1.8	i
55	Cc1ccc2nc3c(cc2c1)CN(Cc1ccco1)C(=NCC1CCCO1)S3 (stereo unspecified)	-1.9	i
56	Cc1cc(Br)ccc1NC(=O)CCN1C(=O)c2ccncc2C1=O	0.2	i

# 3 entries from above, arranged by formula weight, highest first:
entry	compound	26S disassembly	VCAM-1 up
56	Cc1cc(Br)ccc1NC(=O)CCN1C(=O)c2ccncc2C1=O	0.2	i
52	COCCN1Cc2cccc(C(=O)Nc3cccnc3)c2C1=O	-2.1	i
50	CCC1Oc2ccc(C)cc2N(Cc2cccc(C)c2)C1=O (stereo unspecified)	-5.0	nt

# Going on with the list.
entry	compound	26S disassembly	VCAM-1 up
57	COc1ccc(NC(=O)C2CCCN(S(=O)(=O)c3c(C)n[nH]c3C)C2)cc1 (stereo unspecified)	-1.9	nt
58	Cc1cccc(NC(=O)c2ccccc2Br)n1	-0.1	nt
59	O=C(O)c1ccc2c3c(ncnc13)-c1ccccc1C2=O	-0.7	i
60	COC(=O)c1cc(NC2c3ccccc3C(=O)N2c2cccnc2)cc(C(=O)OC)c1 (stereo unspecified)	-0.6	nt
61	C=CCn1c(SCC(=O)O)nnc1-c1cccc(Cl)c1	-1.2	i
62	Cc1cc(NC(=O)Cn2cnc3c(cnn3C(C)(C)C)c2=O)no1	-0.3	i
63	COc1ccc(S(=O)(=O)N2Cc3ccccc3CC2C(=O)Nc2ccc(O)cc2)cc1OC (stereo unspecified)	-2.5	i
64	O=C(CCN1C(=O)C2C3C=CC(C3)C2C1=O)Nc1nccs1 (stereo unspecified)	0.7	nt
65	CCC1Oc2ccc(C)cc2N(CC(=O)NCCN2CCCCCC2)C1=O (stereo unspecified)	5.6	nt
66	CCN1C(=O)Cc2cc(S(=O)(=O)N3CCOCC3)ccc21	-0.3	i
67	CCn1c(=O)cc(SCC(=O)N2CCN(c3ccccn3)CC2)c2ccccc21	-1.5	nt
68	O=C(NCC1CCCO1)c1cccc(N2C(=O)C3C4C=CC(C4)C3C2=O)c1 (stereo unspecified)	1.3	i
69	CCC(=O)N1CCN=C1SCc1ccccc1	-0.7	nt
70	O=C(Nc1cccc(O)c1)C1CCCN1C(=O)OCc1ccccc1 (stereo unspecified)	-0.8	nt
71	CCCN(CCC)S(=O)(=O)c1ccc(C(=O)Nc2nnc(CSC)o2)cc1	-1.5	nt
72	CCCCOc1ccc(C(=O)Nc2cccc(C)n2)cc1	0.2	nt
73	C1=CN2CCC1C(c1ccccc1)C2 (stereo unspecified)	-0.4	nt
74	CCN(CC)C(=O)CCC(=O)Nc1ccc(C(=O)OC)cc1	0.4	nt
75	CC1CC(C)CN(CCCNC(=O)CNC(=O)Cn2ccc3ccccc3c2=O)C1 (stereo unspecified)	-1.0	nt
76	COc1ccc(CCN2CC(C#N)=C3c4cc(OC)c(OC)cc4CCN3C2)cc1OC	-0.6	nt
77	CCCOC(=O)C1[C@H]2C(=O)N(CCCOC)C[C@]23C=C[C@H]1O3 (stereo partly specified)	-1.5	i
78	O=C(CSc1nnc(Cc2cc(=O)[nH]c(=O)[nH]2)n1-c1ccc(F)cc1)N1CCCCC1	0.5	nt
79	CCN1C(=O)CC(C(=O)Nc2ccc(F)cc2)SC1=Nc1cccc(OC)c1 (stereo unspecified)	1.1	nt
80	CC(=O)c1cccc(NC(=O)Nc2ccc3c(c2)N(C)C(=O)CS3)c1	5.0	nt
81	CCOc1cc2c(cc1OCC)C(c1ccc(O)c(OC)c1)NCC2 (stereo unspecified)	-0.2	nt
82	CCOc1ccc(NC(=O)CN2CCN(CC(=O)Nc3ccc(F)c(F)c3)CC2)cc1	-0.1	i
83	O=C(OCCCN1CCCC1)C1(c2ccccc2)CCCC1	0.3	i
84	CCn1c(SCC(=O)NC2CCCCC2)nc2c(c1=O)SC(C)C2 (stereo unspecified)	-4.0	nt
85	CCOc1ccccc1NC(=O)N1CCCC1C(=O)Nc1nnc(CC)s1 (stereo unspecified)	0.1	i
86	Cc1ccc(-c2nnc3ccc(SCC(=O)Nc4cc(C)on4)nn23)cc1	0.5	nt
87	O=c1[nH]ncc2c3ccccc3n(Cc3ccc(F)cc3)c12	0.3	nt
88	CCOc1ccc(-c2cn(S(=O)(=O)c3cccc4nsnc34)nc2N)cc1	0.7	i
89	Cc1ccc(Cc2c(C)nc3c(C(=O)O)cnn3c2C)cc1	0.7	i
90	CC(C)Cn1c(CN2CCCCC2C)nc2c1c(=O)n(C)c(=O)n2C (stereo unspecified)	-0.9	i
91	Cn1cccc1Cc1nnc(SCC(=O)Nc2ccc(F)cc2)n1CCc1ccccc1	1.2	nt
92	CCCCOc1cc(C(=O)NCCN(CC)CC)c2ccccc2n1	-0.8&-0.6	i
93	CCOC(=O)CNC(=O)Cn1cnc2c(nnn2-c2ccc(F)cc2)c1=O	0.4	nt
94	COc1cccc(-c2noc(CCC(=O)NC3CCCCC3)n2)c1	1.7	i
95	COc1ccccc1NC(=O)N1CCN(c2ccccn2)CC1	0.6	nt
96	O=C(Cn1cc2c(n1)CCCCC2)NCc1cccs1	-0.5	nt
97	CC1=C(C#N)C(c2ccoc2)C(C(=O)OCc2ccccc2)=C(N)S1 (stereo unspecified)	0.0	i
98	CC(C(=O)O)C1SC(=O)NC1=O (stereo unspecified)	1.2	nt
